Source: PubChem BioAssay
Rango dissoc inh: qHTS Assay for Inhibitors of RanGTP induced Rango (Ran-regulated importin-beta cargo) - Importin beta complex dissociation; Snurportin-1 (Homo sapiens) + GTP-binding nuclear protein Ran (Homo sapiens) + Importin …; hit rate 0.071% among 340,000; Potency, µM (doses to about 46.1 µM), without a hit: at the top dose activity change, negative = inhibition; AID 540253, 2011; Biochemical FRET Rango-importin beta, RanGTP-induced dissociation; active means falling FRET ratio curve, often poorly fitted, with flat reads before Ran was added; inconclusive means other falling curves, or compound fluorescence or quenching; inactive means flat or rising ratio curve;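 note: potency is the fitted concentration of half-maximal effect; % of control where 0% means no effect; nearly all actives have a fitted effect of over 45% in size; -100% = wells without RanGTP and RCC1; the record marks most hits as doubtful in a second field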
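Compounds sat 5 min at room temperature with 0.1 uM Rango biosensor plus 0.25 uM importin beta, then FRET pre-read. RanGTP-RCC1 (0.6 uM Ran, 2mM GTP, 0.2 uM RCC1) added for 45 min, and the CFP/YFP post-read measured blocked complex dissociation.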
miR-21 reporter: qHTS Assay for Modulators of miRNAs and/orActivators of miR-21. HeLa miR-21 FLuc reporter, luciferase, 48 h. Potency, µM (series often up to 38.3 µM), for inactives: at the top dose reporter change, positive = more light. 340,000 tested, under 10 active. AID 2288, 2010; active = well fitted rising curve with a large enough effect; inconclusive = small, poorly fitted or top-dose-only effect; inactive = no such curve, though single readings can be large or run the other way;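 note: % of control where 0% means no effect; miR-21 action dims this reporter so a rising signal means less miR-21 action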
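HeLa cells endogenously expressing miR-21, stably carrying CMV-driven firefly luciferase with a downstream miR-21 binding site, 2000 cells/well. Titrations up to approximately 40 uM, 48 hours; luciferase luminescence read.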
GLA inh pH 4.5: qHTS Assay for Inhibitors of Human alpha-Galactosidase at pH 4.5. 230,000 tested, under 10 active. AID 1467, 2008. purified enzyme, 4-MU-alpha-Gal fluorescence, pH 4.5. Alpha-galactosidase A (Homo sapiens), P06280. activity change, negative = inhibition, % at 105 µM; inconclusive = small, poorly fitted or top-dose-only inhibition, or a rising curve; inactive = flat fitted curve, though single readings scatter; no compound was filed as active;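 note: 0% = full activity with enzyme and -100% = basal without enzyme; dose as in the result columns while the protocol names 77 µM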
Target sequence (P06280 whole entry, looked up): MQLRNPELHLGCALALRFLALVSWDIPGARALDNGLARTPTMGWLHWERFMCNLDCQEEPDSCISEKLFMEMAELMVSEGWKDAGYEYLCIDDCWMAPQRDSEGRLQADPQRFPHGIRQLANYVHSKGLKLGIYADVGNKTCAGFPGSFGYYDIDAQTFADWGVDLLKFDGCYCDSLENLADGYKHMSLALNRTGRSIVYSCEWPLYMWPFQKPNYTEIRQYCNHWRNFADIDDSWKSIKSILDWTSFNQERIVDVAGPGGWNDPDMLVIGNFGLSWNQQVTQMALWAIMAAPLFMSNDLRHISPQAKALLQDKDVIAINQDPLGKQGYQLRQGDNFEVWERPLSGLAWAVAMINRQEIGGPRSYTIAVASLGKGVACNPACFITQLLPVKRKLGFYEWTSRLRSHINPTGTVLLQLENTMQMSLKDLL
Rango-impB inh: qHTS Assay for Inhibitors of Rango (Ran-regulated importin-beta cargo) - Importin beta complex formation; hit rate 0.031% among 340,000; AID 540263, 2011; Potency, µM (top dose mostly 92.2 µM), inactives show at the top dose inhibition of complex formation; Rango CFP/YFP FRET sensor + importin beta, 45 min; active = rising FRET ratio curve, often small or poorly fitted; inconclusive = mostly compound fluorescence or quenching in the first reads; inactive = flat curves in all reads;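 note: potency is the fitted concentration of half-maximal effect; 0% = DMSO wells and 100% = buffer wells lacking importin beta; nearly all actives have a fitted effect of over 15% in size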
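FRET biosensor Rango (snurportin 1 IBB between N-terminal EYFP and C-terminal Cerulean), 50 nM in PBS/1 mM DTT/0.02% Tween-20/0.1% BSA, preincubated 5 min RT with compound; 0.125 microM importin beta added, 45 min RT, CFP/YFP FRET ratio read.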
* hit, by the source's call; ? = inconclusive; . = no result given; & = joins results of further samples. Some of the compounds tested; the hit share may differ from the screen's.

1) COc1cc(C(=S)N2CCOCC2)ccc1OC(=O)c1ccc([N+](=O)[O-])cc1[N+](=O)[O-]
2) Cc1ccc(C)c(NC(=O)CSc2nnc(CCNC(=O)OC(C)(C)C)o2)c1
3) COc1ccc(OCC(=O)Nc2ccccc2N2CCCCC2)cc1
4) CCOc1ccccc1N1CCN(C(=O)NCc2ccc(Cl)cc2)CC1
5) COCc1ccc(C(=O)N2CCCC(Nc3ccc(C(C)C)cc3)C2)s1 (centres undefined)
6) c1ccc2c(-c3nn[nH]n3)cccc2c1
7) CCOc1ccc(NC(=O)c2ccccc2O)cc1
8) O=C(COC(=O)c1ccc(F)cc1F)Nc1ncccn1

compound no.	1	2	3	4	5	6	7	8
Rango dissoc inh	0%	-14%	-3%	0%	-5%	-5%	-3%	-15%
miR-21 reporter	6%	13%	14%	13%	18%	-5%	9%	0%
GLA inh pH 4.5	.	-5	.	.	.	-7	2	5
Rango-impB inh	?	-1.9%	-4.0%	6.9%	2.6%	1.5%	-0.2%	?

9) CC1(C)CC(=O)C=C(c2cc3ccccc3s2)C1
10) COc1ccc(C(=O)Cn2c(NCCO)nc3ccccc32)cc1OC
11) Cc1cc(C)cc(C(=O)OCC(=O)NCCNC(=O)COC(=O)c2cc(C)cc(C)c2)c1
12) Clc1cc(-c2ccc(/C=N/n3cnnc3)o2)ccc1Br
13) COC(=O)c1c(NC(=O)CN2C(=O)NC3(CCC(C)CC3)C2=O)sc2c1CCC2 (centres undefined)
14) O=C(NC(=S)NCCN1CCOCC1)c1ccccc1
15) O=C(CC(c1ccccc1)c1cc(Br)ccc1O)N1CCCC1 (centres undefined)
16) Cc1cccc(N2C(=O)CC(Sc3ccccc3C(=O)O)C2=O)c1 (centres undefined)

compound no.	9	10	11	12	13	14	15	16
Rango dissoc inh	-3%	-1%	-1%	36%	13%	3%	-15%	7%
miR-21 reporter	.	-8%	11%	2%	.	-22%	8%	-3%
GLA inh pH 4.5	.	1	.	.	.	2	2	3
Rango-impB inh	-0.9%	-2.1%	-4.1%	-1.1%	5.4%	-0.4%	-4.4%	-1.1%

17) CCc1noc(C)c1C(=O)Nc1ccc(C#N)cc1
18) CCOC(=O)[C@@H]1[C@H]2COc3ccccc3[C@@H]2N2C(=O)N(c3cccc(Cl)c3)C(=O)[C@@]12C
19) Cc1[nH]n(-c2ccccc2)c(=O)c1C(=O)Nc1ccccc1
20) NNC(=O)C1CC1(c1ccccc1)c1ccccc1 (centres undefined)
21) Cc1ccc(C)c(Nc2nc(-c3cccnc3)cs2)c1
22) Cc1cccc(C)c1NC(=O)c1cccnc1
23) FC(F)(F)c1ccc2c(c1)C1C=CCC1C(c1ccncc1)N2 (centres undefined)
24) O=C(N/N=C1/CC2C=CCC12)c1ccco1 (centres undefined)

compound no.	17	18	19	20	21	22	23	24
Rango dissoc inh	22%	18%	17%	-15%	3%	-2%	-5%	22%
miR-21 reporter	.	-1%	-22%	6%	-22%	-1%	-2%	-67%
GLA inh pH 4.5	.	.	.	8	.	.	-10	1
Rango-impB inh	3.3%	-0.6%	1.4%	0.0%	-0.1%	-0.1%	-0.1%	-1.5%

25) O=C(c1ccccc1)c1cccc(NC(=O)c2ccc(Br)o2)c1
26) O=C(Nc1cccc(-c2csc(-c3ccccc3)n2)c1)c1cccs1
27) CC(C)(C)c1ccc(C(=O)OCC(=O)N2CCC(c3ccccc3)=N2)cc1
28) Cn1cc(C(=O)c2ccc(Cl)cc2Cl)cc1C(=O)N/N=C(\N)COc1ccc(F)cc1
29) Cc1nnc(Sc2cc(C(=O)NCCCN(C)Cc3ccccc3)c3ccccc3n2)s1
30) COc1ccc(/C(N)=N/O)c(OC)c1
31) CCSc1nnc(NC(=O)C2C3C=CC(C3)C2C(=O)O)s1 (centres undefined)
32) Cc1cc2cc(CNC(=O)c3ccc(S(=O)(=O)N4CCCCC4)cc3)ccc2n1C

compound no.	25	26	27	28	29	30	31	32
Rango dissoc inh	4%	?	1%	6%	2%	8%	4%	-22%
miR-21 reporter	-11%	12%	.	?	-1%	4%	1%	1%
GLA inh pH 4.5	-4	-12	.	-4	-3	2	1	-20
Rango-impB inh	-1.9%	5.6%	0.1%	-0.2%	1.4%	?	6.8%	?

Entries by screen from the list:
GLA inh pH 4.5, compounds 25 to 32: -4, -12, ., -4, -3, 2, 1, -20
miR-21 reporter, compounds 25 to 32: -11%, 12%, ., ?, -1%, 4%, 1%, 1%

More compounds follow.
33) C=CCn1c(SCC(=O)N2CCCC2=O)nc2sc(CC)cc2c1=O
34) Nc1ccccc1Nc1cc(-c2cccc(Cl)c2)nn1-c1ccccc1
35) N#C/C(=C\c1cc([N+](=O)[O-])c(N2CCOCC2)cc1N1CCOCC1)c1nc2ccccc2[nH]1
36) Cc1cccc(NC(=O)CCSc2ccccc2)c1C
37) COC(=O)C(C)Sc1nc2c(cnn2-c2ccc(Cl)cc2)c(=O)[nH]1 (centres undefined)
38) Cc1ccc(S(=O)(=O)N(C)C)cc1NC(=S)NNC(=O)C1CC1
39) Cc1cccc(N(C(=O)CCC(=O)Nc2cc(C)on2)C(C(=O)NC2CCCC2)c2cccnc2)c1 (centres undefined)
40) CCN(C[C@H]1N[C@@](Cc2ccccc2)(C(=O)OC)[C@H]2C(=O)N(C)C(=O)[C@@H]12)C(=O)Nc1ccccc1

compound no.	33	34	35	36	37	38	39	40
Rango dissoc inh	4%	5%	-18%	-13%	0%	7%	-7%	11%
miR-21 reporter	.	-22%	6%	-45%	-3%	-5%	-1%	.
GLA inh pH 4.5	.	-8	-22	3	.	8	.	.
Rango-impB inh	-0.1%	3.6%	-0.9%	0.9%	-2.9%	1.8%	0.5%	-0.4%

41) O=C1[C@H]2[C@@H](C(=O)N1c1cccc3ccccc13)C1(C(=O)c3ccccc3C1=O)N1CCC[C@@H]21
42) O=C(O)c1ccc(N2CCCS2(=O)=O)cc1
43) Cc1cc(OC(=O)c2cc(F)c(F)cc2Cl)nc(C)n1
44) O=CN1CCCN(C(=O)CC2C(=O)NCCN2Cc2cccc(Oc3ccccc3)c2)CC1 (centres undefined)
45) CC(=O)Nc1ccc(S(=O)(=O)c2ccc(N)cc2)cc1N
46) O=c1c(O)c(-c2ccc(O)cc2O)oc2cc(O)cc(O)c12
47) O=C(Cn1cnc2ccccc21)NCc1ccccc1
48) O=C(COC(=O)/C=C/c1cccs1)NC(=O)Cc1ccccc1

compound no.	41	42	43	44	45	46	47	48
Rango dissoc inh	-10%	-15%	8%	-4%	-1%	.	12%	-1%
miR-21 reporter	-5%	-7%	0%	-2%	-3%	-10%	-5%	-2%
GLA inh pH 4.5	-1	.	2	.	-18	0&-8&-5&5	-13	8
Rango-impB inh	?	-3.5%	2.0%	-0.2%	0.8%	.	1.0%	-1.8%

By substructure: the compounds so far with a furan ring, fused or not.
12) Clc1cc(-c2ccc(/C=N/n3cnnc3)o2)ccc1Br
24) O=C(N/N=C1/CC2C=CCC12)c1ccco1 (centres undefined)
25) O=C(c1ccccc1)c1cccc(NC(=O)c2ccc(Br)o2)c1

compound no.	12	24	25
Rango dissoc inh	36%	22%	4%
miR-21 reporter	2%	-67%	-11%
GLA inh pH 4.5	.	1	-4
Rango-impB inh	-1.1%	-1.5%	-1.9%

Whole records from above:
Listed for Cc1ccc(C)c(Nc2nc(-c3cccnc3)cs2)c1 : Rango dissoc inh = 3%; miR-21 reporter = -22%; GLA inh pH 4.5 = .; Rango-impB inh = -0.1%
Listed for NNC(=O)C1CC1(c1ccccc1)c1ccccc1 (centres undefined) : Rango dissoc inh = -15%; miR-21 reporter = 6%; GLA inh pH 4.5 = 8; Rango-impB inh = 0.0%
Listed for CC(=O)Nc1ccc(S(=O)(=O)c2ccc(N)cc2)cc1N : Rango dissoc inh = -1%; miR-21 reporter = -3%; GLA inh pH 4.5 = -18; Rango-impB inh = 0.8%

Carrying on:
49) O=C(CSc1ccccc1)NCc1ccccn1
50) O=C(COC(=O)c1cccnc1Nc1ccccc1F)NC1CC1
51) COCCCn1c(SCC(=O)Nc2ccc3c(c2)OCCO3)nnc1-c1ccoc1C
52) NC(=O)c1ccccc1NC(=O)NC1CCCCC1
53) CSCC(O)Cn1[nH]c(=O)c2cc(Cl)c(Cl)cc2c1=O (centres undefined)
54) COc1ccc(NS(=O)(=O)c2cc(NC(=O)c3ccc(Cl)cc3)ccc2N2CCOCC2)cc1
55) CN1CCCCc2c1[nH]c1ccccc1c2=O
56) O=C(/C=C/c1ccc(Cl)cc1)N1CCN(Cc2ccccc2)CC1

compound no.	49	50	51	52	53	54	55	56
Rango dissoc inh	5%	-1%	-3%	0%	4%	5%	-6%	15%
miR-21 reporter	-12%	-23%	-11%	-12%	-2%	.	-2%	-13%
GLA inh pH 4.5	6	4	-7	1	-2	.	2	.
Rango-impB inh	0.4%	-2.1%	-1.5%	0.3%	2.0%	2.8%	-2.8%	2.0%

57) COCCOC(=O)C1=C(C)Nc2nc(C)nn2C1c1ccc(F)cc1 (centres undefined)
58) Cc1cccc(C)c1NC(=O)CNC(=O)CCNC(=O)c1ccco1
59) Cc1cc([N+](=O)[O-])nn1CC(=O)Nc1c(C)n(C)n(-c2ccccc2)c1=O
60) CC(C)(C)OC(=O)NCCc1nnc(SCc2ccc(Cl)cc2Cl)o1
61) O=C(O)c1ccc(NS(=O)(=O)c2ccc(Cl)c(C(=O)Nc3ccccc3)c2)cc1
62) COC(=O)Cc1c(C)nc2nc(-c3ccc(Cl)cc3)[nH]n2c1=O
63) O=C(CC1SC(=Nc2ccccc2)N(CCc2ccccn2)C1=O)Nc1ccc(F)cc1 (centres undefined)
64) COc1ccc(-n2c(Cc3cc(=O)[nH]c(=O)[nH]3)nnc2SCC(=O)N2CCCC2)cc1

compound no.	57	58	59	60	61	62	63	64
Rango dissoc inh	-10%&6%	0%	-2%	1%	-5%	-6%	-12%	8%
miR-21 reporter	2%	.	1%	12%	6%&-1%	-3%	8%	-5%
GLA inh pH 4.5	5	.	-6	3	.	5	-7	0
Rango-impB inh	-2.2%&-5.2%	-1.8%	-0.5%	-0.6%	-4.6%	0.2%	-2.9%	7.7%

65) N#Cc1c2c(c(Nc3ccc(O)cc3)n3c1nc1ccccc13)CCC2
66) CNC(=O)C1CCN(C(=O)c2ccc(-c3ccccc3)cc2)CC1
67) COc1cc(CNc2ccc(CNc3ncn[nH]3)cc2)cc(Cl)c1OCc1ccccc1
68) CSCC[C@H](NC(=O)OC(C)(C)C)C(=O)NCC1CCC(C(=O)N[C@@H](Cc2ccccc2)C(=O)O)CC1 (some centres undefined)
69) N#C/C(=C\c1cccc([N+](=O)[O-])c1)c1nnc2n1CCCCC2
70) CCC(C)C(=O)Nc1ncc2c(n1)CC(c1cccs1)CC2=O (centres undefined)
71) COc1ccccc1-n1cc(-c2ccccc2)c2c(=S)nc[nH]c21
72) CC1CCN(CC(=O)Nc2ccc3c(c2)OCO3)CC1

compound no.	65	66	67	68	69	70	71	72
Rango dissoc inh	-12%	9%	10%	-4%	12%	11%	26%	1%
miR-21 reporter	-2%	-24%	-6%	0%	13%	-7%	15%	.
GLA inh pH 4.5	1	-2	5	.	5	-5	.	.
Rango-impB inh	?	-0.4%	-0.9%	1.9%	-0.6%	2.3%	-2.9%	2.6%
